Screening data: PubChem, National Center for Advancing Translational Sciences (NCATS)
StopGo reporter: FMDV 2A StopGo reporter, luciferase signal. human cells with a luciferase reporter of 2A StopGo recoding; control for the full effect not named in the record. Potency, µM (series often up to 57.9 µM), inactives show top-dose signal change, negative = less light. 1.2% of 410,000 active. AID 1159524; active = well fitted falling curve with a large enough effect; inconclusive = small, poorly fitted or top-dose-only effect; inactive = no such curve, though single readings can be large or run the other way; tested in HEK293T cells; also: nearly all actives have a fitted effect of over 45% in size; luciferase light after 4 h
RE007 growth inh: less growth of the S. pombe RE007 Vpr strain. S. pombe RE007 Vpr strain, BacTiter-Glo ATP luminescence, 24 h; control for the full effect not named in the record. AID 651644. 0.21% of 360,000 active. Potency, µM (highest dose often 92.2 µM), for the others: top-dose activity change, negative = less growth; active = well fitted falling curve with a large enough effect; inconclusive = small, poorly fitted or top-dose-only effect; inactive = no such curve, though single readings can be large or run the other way;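 also: nearly all actives have a fitted effect of over 50% in size; the assay follows cell death caused by Vpr and the record does not say whether a fall means rescue or toxicity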
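Fission yeast strain RE007, carrying one chromosomally integrated HIV-1 vpr copy, was seeded at OD 0.01 in PMG+AL medium with 23 nL pinned compound. After 24 h at 30 °C and 99% humidity, viability was read by BacTiter-Glo luminescence.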
* hit, by the source's call; u = inconclusive; [ ] = another dose, or the depositor's remark. % is scaled to controls: 0 for no effect and ±100 for the full control effect; potency is read from the fitted curve at half-maximal effect. Only part of the results is shown; the hit share may differ from the screen's.

Order of results: StopGo reporter	RE007 growth inh
> CCOC1=C2[C@H](c3ccc(C)cc3)N(S(=O)(=O)c3ccc(C)cc3)C[C@H]2n2c(=O)n(-c3ccccc3)c(=O)n2C1
→ 40%[activator]	-2%
> Cn1cc(CN2CCC(C(=O)NC(c3ccc(-c4ccccc4)cc3)c3cnccn3)CC2)c2ccccc21 (stereo not given)
→ 0%	16%
> Nc1nc(Cl)nc2c1ncn2C1CC(O)C(CO)O1 (stereo not given)
→ 0%	12%[18.4 µM]
> OCc1ccccc1-c1cnc2sc(NCc3ccc(F)cc3)nn12
→ -17%	-4%
> COCCNC(=O)C1(C)CCCN(C(=O)c2ccc3ccccc3c2)C1 (stereo not given)
→ -21%	1%
> C[C@H](NC(=O)c1ncn2c1C(=O)NC[C@H]2C)C(=O)OC(C)(C)C
→ -10%	-12%
> CC1(C)N=C(N)NC(=NCCCOc2ccc([N+](=O)[O-])cc2)N1
→ -12%	-29%
> CCc1nc2c(OCC(=O)N(C)C)cccn2c1N(C=O)Cc1ccc(OC)cc1
→ -5%	8%
> O=C(Nc1c2c(nn1-c1ccccc1)CS(=O)(=O)C2)c1ccc(Br)o1
→ -27%	-4%
> Cc1ccc(N2CC(C(=O)NC3CCCCCC3)CC2=O)cc1 (stereo not given)
→ -18%	0%
> O=C(NCCc1ccccc1)C1C(=O)Nc2ccccc2C(=O)N1C1CCCCC1 (stereo not given)
→ -4%	4%
> O=C(OCc1ccccc1Cl)c1cc([N+](=O)[O-])ccc1N1CCOCC1
→ u	11%
> O=Nc1c(-c2ccccc2)n(O)[n+]([O-])c1-c1ccccc1
→ 46%[activator]	-23%
> O=C1NC[C@@H](CCCCN2C[C@H](Cc3ccc(O)cc3)N(CCc3ccccc3)C(=O)C2=O)N(Cc2ccccc2)C1=O
→ -16%	-3%
> CC1=C(C(=O)N2CCCCCC2)CC(CC(=O)NC(c2ccccc2)c2ccccc2)C(=O)N1Cc1ccccc1 (stereo not given)
→ -16%	-3%
> CN(C)c1ccc(-c2ccnc3c2CC(C)(C(=O)NCc2ccc(F)c(F)c2)O3)cc1 (stereo not given)
→ 18%	7%
> CC1=C(C(=O)N2CCOCC2)CC(CC(=O)NCCc2ccccn2)C(=O)N1Cc1ccccc1 (stereo not given)
→ -20%	8%
> CC(C)(C)CNC(=O)C1(C)CCN1C(=O)Cc1ccc(-c2ccccc2)cc1 (stereo not given)
→ u	7%[18.4 µM]
> COC(=O)[C@]12CCCCC=C1N(Cc1ccc(Cl)cc1Cl)C(=O)[C@H](CC(=O)NCCc1ccccc1OC)C2
→ -15%	3%
> Clc1ccc(-c2nc3ccc(Br)cn3c2Cc2ccccc2)cc1
→ 4%	-11%
> O=C1NC(Cc2ccc(O)cc2)c2nc3cc(F)c(F)cc3c(=O)n2-c2ncccc21 (stereo not given)
→ -14%	-27%
> CN(C)c1ccc(CNc2nc3ccccc3n2C)cc1
→ 37%[activator]	2%
> CS(=O)(=O)c1ccc(C2=C(CNC(=O)c3ccncc3)[C@H]3CC[C@@H](C2)N3Cc2ccco2)cc1
→ -5%	-8%
> CCc1nc2c(OCc3ccc(Cl)cc3)cccn2c1N(C)C(=O)c1cccs1
→ u	1%
> O=C(c1[nH]c(C(F)(F)F)nc1-c1ccccc1)N1CCN(c2ccccc2)CC1
→ -11%	5%
> OC(c1ccc(F)c(F)c1)c1nc(-c2ccoc2)cs1 (stereo not given)
→ -23%	-8%
> COc1ccc(C(C)(NC(C)=O)c2nc(-c3cncnc3)cs2)cc1 (stereo not given)
→ -16%	-7%
> CN1C(=O)[C@H]2[C@@H](c3ccc(C(F)(F)F)cc3)N[C@]3(CCCN(Cc4ccc(C(F)(F)F)cc4)C3=O)[C@H]2C1=O
→ u	3%
> CCOC(=O)c1cc2cc(OC)ccc2n1C1CCN(CCc2ccccc2)CC1
→ -7%	-7%
> O=C1NC[C@H](CCCCN2C[C@H](Cc3ccccc3)N(CC3CCCCC3)C(=O)C2=O)N(CCc2ccccc2)C1=O
→ -6%	5%

Copied from the list.
`CC(C)(C)CNC(=O)C1(C)CCN1C(=O)Cc1ccc(-c2ccccc2)cc1` (stereo not given) – RE007 growth inh = 7%[18.4 µM]
`Cn1cc(CN2CCC(C(=O)NC(c3ccc(-c4ccccc4)cc3)c3cnccn3)CC2)c2ccccc21` (stereo not given) – RE007 growth inh = 16%
`O=C1NC[C@@H](CCCCN2C[C@H](Cc3ccc(O)cc3)N(CCc3ccccc3)C(=O)C2=O)N(Cc2ccccc2)C1=O` – StopGo reporter = -16%
`Cc1ccc(N2CC(C(=O)NC3CCCCCC3)CC2=O)cc1` (stereo not given) – RE007 growth inh = 0%

Following part:
Order of results: StopGo reporter	RE007 growth inh
> CCC(C)CNC(=O)c1[nH]c(C(F)(F)F)nc1-c1ccccc1 (stereo not given)
→ 3%	-10%
> O=[N+]([O-])c1ccc(COc2ccccc2CN2CCOCC2)cc1
→ 0%	-28%
> CC1(Oc2ccc(CC#N)cc2)CCN(Cc2ccc(-n3ccnc3)cc2)C1 (stereo not given)
→ -27%	u
> CCOC(=O)[C@]12CCC=C1N(CCC1=CCCCC1)C(=O)[C@H](CC(=O)NCc1ccccc1)C2
→ 7%	-1%
> Cc1ccsc1C(=O)OCC(=O)Nc1cccc(S(=O)(=O)N2CCCCC2)c1
→ 19%	12%
> O=C1N2CCCCC1(c1ccccc1)CCCC2
→ -15%	3%
> CCc1nc2ccc(C(=O)NCCCn3ccnc3)cn2c1N(C)Cc1ccc(Cl)cc1
→ -21%	-21%
> Cc1ccc(C2/C(=C(\O)c3c(C)nc4c(C)cccn34)C(=O)C(=O)N2CCN(C)C)o1 (stereo not given)
→ -3%	-6%
> CNc1cncc(-c2ccccc2CO)n1
→ -18%	0%
> COC(=O)C1=C(C)N(CCCC(=O)O)C(=O)NC1c1cccc(Cl)c1Cl (stereo not given)
→ -23%	-6%
> CCOC(=O)[C@]12CCC=C1N(Cc1ccco1)C(=O)[C@H](CC(=O)N1CCCCC1)C2
→ -15%	1%
> COc1cc(C=C2Cc3ccccc3C2=O)cc(OC)c1OC
→ -6%	-12%[18.4 µM]
> CC(C)(C)c1ccc(C(=O)OCC(=O)Nc2cccc(S(=O)(=O)NC3=NCCC3)c2)cc1
→ -3%	6%
> COc1ccc(OCCNC(=O)c2ccc3nc(C)c(N(C)Cc4ccc(NC(C)=O)cc4)n3c2)cc1
→ 0%	u
> COc1ccc(CC(=O)Nc2ccc3c(c2)OC2(CCCC2)O3)c(OC)c1
→ -3%	-7%
> Cc1nn(CC(=O)Nc2cccc(O)c2)c(=O)c2ccccc12
→ -2%	-1%
> CN(CCc1ccccc1)C(=O)c1ccc(NC(=O)Cc2cccc(NC(=O)C3CCN(C(=O)C4CCCCC4)CC3)c2)cc1
→ -24%	-5%
> Nc1ccn([C@@H]2O[C@H](CNCc3ccc(C#CCCO)cc3)[C@@H](O)[C@H]2O)c(=O)n1
→ -3%	14%
> CS(=O)(=O)c1ccc(C2=C(CNC(=O)c3cccs3)[C@H]3CC[C@@H](C2)N3Cc2ccccc2)cc1
→ -5%	-3%
> O=C(NC1CCCCC1)N1Cc2cc(-c3cccc(F)c3)ccc2-n2nncc2C1
→ -3%	6%
> CCCCC[C@H](C)N1C[C@@H](COCc2ccccc2)Oc2cc(N3CCC[C@H]3C(N)=O)ccc2S1(=O)=O
→ -3%	-1%
> C=CCNc1nc(-c2ccc3c(c2)OCCO3)cs1
→ -13%	-5%
> Cn1ncc2c1NC(c1ccc(F)cc1)SCC2=O (stereo not given)
→ -21%	-1%
> CCCCNC(=O)C1(C)CCC(=O)N1CCCn1ccnc1 (stereo not given)
→ -5%	-10%
> CS(=O)(=O)N(CC(=O)N1CCOCC1)c1cccc(Cl)c1
→ -17%	-3%
> Cc1ccc(-c2nc3ccc(Br)cn3c2Cc2ccccc2)cc1
→ 26%	-2%
> CC(C)C[C@H]1CN(CCCC[C@@H]2CNC(=O)C(=O)N2Cc2ccccc2)C(=O)C(=O)N1CCC1CCCCC1
→ 12%	10%
> CCc1nc2c(OCc3ccc(F)cc3)cccn2c1N(C)C(=O)c1ccco1
→ -21%	1%
> CC(=O)NC(Cc1c[nH]c2ccccc12)C(=O)OCC(=O)N1CCN(S(=O)(=O)c2ccc(Cl)cc2)CC1 (stereo not given)
→ -16%	-18%
> CCN(CC)C(=O)c1cccc(-c2csc(C(C)(O)c3cccc(OC)c3)n2)c1 (stereo not given)
→ 35µM*	4%
> O=C(/C=C/c1ccccc1)Nc1cccc(C(=O)NCCCc2ccccc2)c1
→ -23%	0%
> O=C(Cn1cc(COc2c(Br)cc(F)cc2Br)nn1)c1ccc(O)cc1
→ -29%	-5%
> COc1ccc(C(=O)OCC(=O)Nc2cc(C)on2)cc1F
→ -24%	15%
> COCOCCn1cc(CN2CCS(=O)(=O)N(Cc3ccc(-c4ccc(Cl)nc4)cc3)C(C)C2=O)nn1 (stereo not given)
→ -20%	-29%
> CCCCCC(=O)N1C[C@H](n2cc(COC(=O)c3ccccc3)nn2)[C@@H](O)C[C@@H]1c1ccc(OC)cc1
→ -9%	-9%
> CCCCNC(=O)C1(C)CCN1C(=O)c1sccc1C (stereo not given)
→ -8%	7%
> CC(C)c1cccc(C(C)C)c1NC(=O)c1ccc(-c2cc(Cl)ccc2Cl)o1
→ -18%	8%
> COC(=O)[C@@]12C[C@@H](CC(=O)N3CCC(c4ccccc4)CC3)C(=O)N(Cc3ccco3)C1=CCC(C)(C)C2
→ -10%	1%
> Cc1cccc(CNC(=O)c2sc(=O)n(Cc3ccccc3C)c2C)c1
→ -6%	22%[18.4 µM]
> O=C(NCc1ccc(Cl)nc1)c1csc([C@@H]2C[C@H](O)[C@@H](CO)O2)n1
→ -17%	-11%

The final 2 entries of the section above are carried over, then new ones follow.
Order of results: StopGo reporter	RE007 growth inh
> Cc1cccc(CNC(=O)c2sc(=O)n(Cc3ccccc3C)c2C)c1
→ -6%	22%[18.4 µM]
> O=C(NCc1ccc(Cl)nc1)c1csc([C@@H]2C[C@H](O)[C@@H](CO)O2)n1
→ -17%	-11%
> CSc1nc(COC(=O)NC(C)C)c(COC(=O)NC(C)C)n1Cc1ccccc1
→ -11%	-5%
> Cn1c2nc(=O)n(-c3ccccc3)c(=O)c-2nc2c1CCCC2
→ -5%	4%
> CNC(=O)C[C@H]1CC[C@@H]2NC[C@H](O)COC[C@H]2O1
→ -15%	5%
> COc1ccc(F)cc1-c1cc(NC(C)=O)c2ncc(-c3cccc(C(F)(F)F)c3)n2c1
→ -3%	6%
> CC1=C(C(=O)N2CCOCC2)CC(CC(=O)NCc2ccco2)C(=O)N1Cc1ccc(F)cc1 (stereo not given)
→ -12%	-14%
> COc1ccc(C(=O)N[C@H](C(=O)Nc2cccc(S(=O)(=O)N3CCOCC3)c2)C(C)C)cc1
→ -14%	-1%
> Fc1ccc(-c2nc3ccc(Br)cn3c2Cc2cccc(F)c2)cc1
→ 23%	3%
> COc1ccc(C(=O)N2CCC2(C)C(=O)NC(C)C)c(OC)c1 (stereo not given)
→ -13%	7%
> CCc1cc(-c2cnnn2Cc2ccc3ccccc3c2)ccc1-c1cn(CC(C)C)nn1
→ u	0%
> CCCNC(=O)c1cc(C2CCCCN2C(=O)OCCF)on1 (stereo not given)
→ 11%	7%
> NC(=S)NN=Cc1nccc2c(C(F)(F)C(F)(F)C(F)(F)F)cccc12
→ -8%	u
> Cc1cc(C(=O)N2CCCC(Nc3ccc(C)c(C)c3)C2)nc(C)n1 (stereo not given)
→ 7%	3%
> C/C=C/c1cccc(-c2nc(C(=O)NC3Cc4ccccc4C3)cc3c2[C@@H](CCO)N(C(C)=O)C3)c1
→ 0%	-27%
> CC(=O)c1ccc(O)c(CC=C(C)C)c1O
→ -8%	-13%
> CC(=O)OC[C@@H]1CN(Cc2ccccc2)C[C@H](n2cnc3c(NCc4ccco4)ncnc32)O1
→ -16%	1%
> COc1ccc(C(=O)N/N=C/c2ccccn2)cc1
→ 19%	-8%
> O=C1CCC[C@@H]2[C@@H](Cc3ccccc3)[C@H](N3CCN(c4ccccc4)CC3)C[C@@H]3CCN1[C@@H]32
→ 0%	-9%
> CC(NC(=O)COC(=O)c1ccccc1O)c1ccccc1 (stereo not given)
→ 12%	6%
> CNC(=O)C1Cc2c(-c3cccc(F)c3)ccnc2O1 (stereo not given)
→ -22%	0%
> COc1ccc(NC(=O)N[C@H]2C=C[C@@H](CC(=O)NC3CCC3)O[C@@H]2CO)cc1
→ -15%	2%

Random excerpt: 2 compounds from above.
Order of results: StopGo reporter	RE007 growth inh
> O=C1CCC[C@@H]2[C@@H](Cc3ccccc3)[C@H](N3CCN(c4ccccc4)CC3)C[C@@H]3CCN1[C@@H]32
→ 0%	-9%
> C/C=C/c1cccc(-c2nc(C(=O)NC3Cc4ccccc4C3)cc3c2[C@@H](CCO)N(C(C)=O)C3)c1
→ 0%	-27%

(listing goes on)
Order of results: StopGo reporter	RE007 growth inh
> CCOc1ccc(NC(=O)c2ccc3c(c2)N(C)CCS3)cc1
→ 72%[activator]	3%
> COCCNC(=O)C1C(=O)Nc2ccccc2C(=O)N1c1ccc2c(c1)OCCO2 (stereo not given)
→ 4%	5%
> CN(C)c1ccc(C=Cc2nccc3ccccc23)cc1
→ 32%[activator]	u
> CC1(C(=O)Nc2cccc(Oc3ccccc3)c2)Cc2c(-c3ccc4c(c3)OCO4)ccnc2O1 (stereo not given)
→ -7%	1%[18.4 µM]
> Cc1ccc(Nc2ccncc2S(N)(=O)=O)cc1
→ -5%	4%
> O=C(NCc1ccco1)C1Cc2c(-c3cccc(F)c3)ccnc2O1 (stereo not given)
→ -8%	-10%
